# TRPML1 blocker: human mucolipin-1 channel inhibition. TRPML1-inducible cells, Ca2+ dye fluorescence, FDSS; hits give low values; inhibition of EC80 agonist-evoked calcium signal. 390,000 compounds, 0.02% hits. activity change, negative = inhibition, % (test concentration not listed). Q9GZU1; in the data active means activity change below about -50%; inconclusive means about -30% to -50%; inactive means above about -30%;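 further: stimulus is agonist 54-4 at its EC80 concentration; on the % scale 0 is the no-effect control and ±100 the full control effect; compound concentration not given in the record; the text of the record puts the active cut at -80%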
#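 Calcium fluorescence in TRPML1-DL cells induced overnight with Tet: a 110 s read after compound pin addition, then a 110 s antagonist read after challenge with 54-4 at 4 uM final (EC80).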
# gsp antag: gsp mutant antagonism; gsp-mutant cells, cAMP HTRF, 30 min; control for the full effect not named in the record; Potency, µM (highest dose often 76.9 µM), for inactives: at the highest dose activity change, negative = inhibition, actives largely listed as inhibitors; 340,000 compounds, 0.4% hits; active = falling curve of any shape with a large fitted effect; inconclusive = falling curve, mostly with a smaller effect; inactive = flat or rising curve; cell line not stated here;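 further: intracellular cAMP measured with PDE inhibitor Ro 20-1724 present during compound exposure; potency means the concentration at half of the fitted maximal effect; on the % scale 0 is the no-effect control and ±100 the full control effect; nearly all actives have a fitted effect of over 65% in size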
#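 Measurement of cellular cAMP by homogeneous time-resolved fluorescence following a 30 min compound exposure at 37C. The PDE inhibitor […] was present throughout; the assay buffer was DPBS with 0.05% BSA and 0.005% Tween 20.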
# gsp ag: activates gsp, the McCune-Albright syndrome mutation. gsp mutant cells, cAMP HTRF, 30 min; control for the full effect not named in the record. Potency, µM (highest dose often 76.9 µM), without a hit: at the highest dose activation (cAMP increase), usual class: activators. 340,000 compounds, 0.13% hits; active = well fitted activation curve with a large enough effect; inconclusive = small, poorly fitted or top-dose-only effect, or another doubt; inactive = no such curve, though single readings can be large or run the other way; cell line not stated here;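 further: phosphodiesterase inhibitor Ro 20-1724 added with compounds to block cAMP breakdown; potency means the concentration at half of the fitted maximal effect; nearly all actives have a fitted effect of over 60% in size; about a fifth of the inactives were tested at one dose only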
#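 Cells stably selected in G418 were plated at 2000/well, grown 16-24 hr, then given compounds in DMSO with the PDE inhibitor […] (300 uM solution added) for 30 min at 37C; cAMP was read by HTRF.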
# TRPV1 potentiator: potentiators of human vanilloid receptor 1 (TRPV1). potentiation, % at 8.33 µM. TRPV1-expressing cells, Fluo-8 calcium influx, capsaicin EC20 potentiation; host cell line not named in the record; control for the full effect not named in the record. 320,000 compounds, 0.02% hits. AID 540277. Q8NER1; active means potentiation above 80%; inconclusive means 30% to 80%; inactive means below 30%; further: 0% is about no effect
# Target sequence (Q8NER1 whole entry, looked up): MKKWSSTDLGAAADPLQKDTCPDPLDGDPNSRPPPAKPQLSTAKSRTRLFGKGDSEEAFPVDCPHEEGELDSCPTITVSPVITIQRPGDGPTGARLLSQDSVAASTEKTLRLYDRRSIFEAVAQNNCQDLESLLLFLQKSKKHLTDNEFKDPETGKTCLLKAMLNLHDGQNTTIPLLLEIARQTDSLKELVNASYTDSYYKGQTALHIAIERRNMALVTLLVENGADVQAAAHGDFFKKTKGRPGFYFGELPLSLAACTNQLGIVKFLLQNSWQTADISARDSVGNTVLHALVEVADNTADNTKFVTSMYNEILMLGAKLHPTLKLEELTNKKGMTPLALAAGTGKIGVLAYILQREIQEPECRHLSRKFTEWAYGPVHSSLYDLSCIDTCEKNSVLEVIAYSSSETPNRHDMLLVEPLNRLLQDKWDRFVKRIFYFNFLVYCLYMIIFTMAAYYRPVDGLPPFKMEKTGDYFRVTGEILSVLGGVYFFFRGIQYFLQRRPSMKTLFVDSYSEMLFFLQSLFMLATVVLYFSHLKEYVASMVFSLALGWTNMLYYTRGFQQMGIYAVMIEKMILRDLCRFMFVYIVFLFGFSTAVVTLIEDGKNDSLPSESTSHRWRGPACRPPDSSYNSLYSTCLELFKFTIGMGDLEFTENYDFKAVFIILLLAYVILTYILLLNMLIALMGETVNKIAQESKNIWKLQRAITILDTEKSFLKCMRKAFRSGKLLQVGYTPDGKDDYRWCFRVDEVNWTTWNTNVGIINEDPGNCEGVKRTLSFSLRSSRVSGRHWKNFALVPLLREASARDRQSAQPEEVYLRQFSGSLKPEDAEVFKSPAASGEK
#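 Fluo-8 calcium influx in TRPV1-expressing cells, kinetic read (ex 480/em 520 nm). Compound added and read 3 min for agonist activity, followed by capsaicin at EC20 final and 2 min further read for enhancement.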
# Menin MLL FP FL: inhibitors of human menin-MLL interaction, wild-type MLL peptide; FP activity change, % at 61.4 µM; Fluorescence polarization, fluorescein-MLL peptide displacement from menin; 290,000 tested, under 10 active; inconclusive = falling polarisation curve, or a change in total fluorescence; inactive = total fluorescence flat and polarisation flat or rising; no compound was filed as active; the % refers to the polarisation; negative = inhibition;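 further: % of control where 0% means no effect; inhibitors lower the polarisation; unlabelled MLL peptide was the positive control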
# ClpP mod: qHTS Assay for Activators of ClpP | Potency, µM (top dose mostly 57.5 µM), for the others: at the highest dose activity change, negative = active | purified B. subtilis ClpP, FRET peptide cleavage, 20 min | 340,000 compounds, 1.9% hits | AID 651965, 2013; active = well fitted falling curve with a large enough effect; inconclusive = small, poorly fitted or top-dose-only effect; inactive = no such curve, though single readings can be large or run the other way; further: potency means the concentration at half of the fitted maximal effect; the source files actives as falling curves though it sought activators and does not explain the sign; nearly all actives have a fitted effect of over 65% in size; many hits overshoot -100%
# Target sequence (P80244 whole entry, looked up): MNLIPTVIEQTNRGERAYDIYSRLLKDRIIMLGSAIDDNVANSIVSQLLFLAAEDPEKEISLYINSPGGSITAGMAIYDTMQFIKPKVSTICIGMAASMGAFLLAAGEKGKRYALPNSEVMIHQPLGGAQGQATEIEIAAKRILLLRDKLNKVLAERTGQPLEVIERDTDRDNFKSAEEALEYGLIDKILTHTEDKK
#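 Purified B. subtilis ClpP, 10 microg/mL final in Tris/HCl pH8 with KCl, BSA, glycerol and Tween-20, cleaved an Abz/nitrotyrosine-quenched decapeptide. Fluorescence (ex 320, em 430) was read at 0 and 20 min at room temperature. Delta was normalized to 5.8 microM ADEP and DMSO/no-enzyme controls.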
# Sfp inh: inhibitors of Bacillus subtilis Sfp phosphopantetheinyl transferase | Potency, µM, without a hit: max response, negative = inhibition, usual class: inhibitors | Q9F4F7 | 310,000 compounds, 3.5% hits | Biochemical Sfp PPTase activity, qHTS | AID 1490; active means well fitted inhibition curve with a large enough effect; inconclusive means small, poorly fitted or top-dose-only effect, or another doubt; inactive means no such curve, though single readings can be large or run the other way;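 further: the enzyme is Sfp with the accession as filed and its product quenches rhodamine fluorescence; potency means the concentration at half of the fitted maximal effect; 0% = enzyme reaction without inhibitor and -100% = no enzyme wells; top concentration of the series not given in the record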
#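 Fluorescence-quenching assay: 15 nM Sfp-PPTase preincubated 15 min at room temperature with compound, then 5 uM rhodamine-CoA and 12.5 uM BHQ-2-labelled YbbR peptide added. Fluorescence (ex 525/em 598 nm) read at start and after 30 min; difference gives rate.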
# * = called active by the depositor; ? = inconclusive; . = no result given; & = joins results of further samples; [ ] = remark or other dose.
# Values in the order: TRPML1 blocker	gsp antag	gsp ag	TRPV1 potentiator	Menin MLL FP FL	ClpP mod	Sfp inh
- COc1ccc(C(=O)Nc2ccc(C)cc2C(=O)c2ccccc2)c(OC)c1
  19	10%	-28%	-13	6.1	-2.3%	-11%
- COc1ccc(OC)c(NS(=O)(=O)c2cc(OC)ccc2OC)c1
  -3	-5%	-33%[inhibitor]	-6	0.8	3.4%	8%
- Cc1ccnc(NC(=O)C2CCN(S(=O)(=O)c3ccc(C)c(C)c3)CC2)c1
  15	-7%	17%[15.4 µM]	-20	.	.	.
- COc1ccc(CCNC(=O)C2CCN(S(=O)(=O)c3ccc(NC(C)=O)cc3)CC2)cc1OC
  -17	6%	11%	9	16	-0.8%	11%
- O=C(O)c1ccc(-n2cccc2)cc1O
  -3	-22%	-42%	-5	5.3	?	26%
- Cc1cccc(-n2ccnc2CN2CCN(C(C)C)C(CCO)C2)c1 (stereo not given)
  4	12%	5%[15.4 µM]	0	-1.6	.	18%
- CN(C)c1ccc(C(c2nnnn2C(C)(C)C)N2CCc3ccccc3C2)cc1 (stereo not given)
  .	.	.	6	5.9	.	-12%
- CCOC(=O)C(=O)C1=CN(Cc2ccccc2)C=C(C#N)C1
  57	0%	-9%	-16	7.8	.	5%
- COc1ccc(CC(=O)NCc2cccc(CNC(=O)Cc3ccc(OC)c(OC)c3)c2)cc1OC
  1	-5%	-21%	6	4.6	-0.1%	-3%
- COc1ccc(NC(=O)c2ccc(S(=O)(=O)N3CC(C)OC(C)C3)cc2)cc1 (stereo not given)
  26	-2%	29%	.	.	2.4%	.
- CCOC(=O)c1cc([N+](=O)[O-])sc1NC(=O)CC
  17	-13%	-9%[15.4 µM]	-16	-0.5	-1.2%	19%
- COc1ccc(N(CC(=O)NC2CCCC2)C(=O)Cn2nnc(-c3ccc(C)cc3)n2)cc1OC
  6	-3%	1%	7	1.5	0.8%	21%
- Cc1cc2oc(=O)cc(CN(C)Cc3cccc(F)c3)c2cc1C
  13	6%	8%	-4	3.3	-0.2%	-17%
- O=C(Nc1nnc(-c2ccccc2SCc2ccccc2)s1)Nc1ccccc1F
  1	9%	4%	-4	.	-12%	-13%
- O=C(CSc1ncccn1)NC1CCCc2ccccc21 (stereo not given)
  9	3%	3%[15.4 µM]	-41	2.7	.	-16%
- O=C(NCCc1c[nH]c2ccccc12)/C(=C/c1cccnc1)NC(=O)c1ccco1
  22	-8%	-8%	-3	3.0	0.8%	5%
- O=C(C1CCN(C2CC(=O)N(c3ccc(F)cc3)C2=O)CC1)N1CCOCC1 (stereo not given)
  -5	7%	-1%	6	5.4	-1.7%	-14%
- O=C1CC(c2ccccc2)C(C(=O)Nc2ccccc2F)N1 (stereo not given)
  3	1%	-33%[inhibitor]	2	-0.8	1.8%	13%
- CCN(CC)S(=O)(=O)c1ccc(NC(=S)Nc2ccccc2)cc1
  -12	11%	-4%	15	2.6	0.7%	-5%
- CCc1ccc(C(=O)COC(=O)C(CCSC)NC(=O)C23CC4CC(CC(C4)C2)C3)cc1 (stereo not given)
  15	9%	-95%[inhibitor]	2	8.8	-2.7%	9%
- CC1=N/C(=C/c2cccnc2)C(=O)O1
  -1	-2%	-1%[15.4 µM]	-22	4.9	.	17%
- COc1cccc2c1OCC(C(=O)OCc1cccnc1)=C2
  -7	7%	-10%[15.4 µM]	2	-0.9	.	12%
- CCN(c1cccc(C)c1)c1ncnc2nc[nH]c12
  26	2%	-3%	27	?	1.9%	10%
- COc1cc(/C=N/N(C)C)cc(Br)c1O
  -16	4%	39%[15.4 µM]	-1	1.1	.	-10%
- COC(=O)c1c(NC(=O)C(C)C)sc2c1C(C(=O)OC)CC2 (stereo not given)
  4	-3%	-17%	1	-0.7	0.6%	13%
- COc1ccc(C(=O)Nc2cccc(C(=O)N3CCCC3)c2)cc1
  -1	6%	-6%	-1	-2.1	0.0%	13%
- Cc1nc2ccccn2c1C(=O)NCc1ccc2c(c1)OCO2
  -8	-2%	6%	-1	1.5	-4.2%	16%
- CC(NS(=O)(=O)c1ccc(Cl)cc1)C(=O)Nc1ccc2c(c1)OCCO2 (stereo not given)
  9	13%	-4%[15.4 µM]	2	-4.1	.	5%
- Cc1nc(NCCc2cnc[nH]2)c2oc3ccccc3c2n1
  -10	5%	-45%[inhibitor]	-10	9.2	-3.7%	-6%
- COC(=O)c1ccc(CN=C(NS(=O)(=O)c2ccccc2)c2ccccc2)cc1
  -5	-5%	1%	.	.	-1.9%	.
- CCCCn1nnc(NC(=O)c2ccc(-c3ccccc3[N+](=O)[O-])o2)n1
  -12	-2%	?	-1	?	-1.1%	14%
- Fc1ccc(CNc2ncnc3cc(Cl)ccc23)cc1
  -5	-1%	?	28	3.8	-4.7%	-16%
- Cc1ccc(NC(=O)C2C(C(=O)O)C3C=CC2C32CC2)cc1 (stereo not given)
  -1	6%	-40%[inhibitor]	6	2.2	-0.8%	?
- CCc1ccc(N(C(=O)CNC(=O)c2cccs2)C(C(=O)NC(C)(C)C)c2cc(OC)c(OC)c(OC)c2)cc1 (stereo not given)
  26	-4%	-2%	.	3.0	-0.4%	2%
- C[C@H](NC(=O)c1nc[nH]c1C(=O)N[C@@H](CCCCN)C(=O)OC(C)(C)C)C(=O)OCc1ccccc1
  10	13%	-10%	.	.	-4.1%	.
- COc1ccccc1C(=O)Nc1ccc(C(=O)c2ccccc2)cc1
  14	?	14%	-9	11	.	0%
- CCOc1ccccc1NC(=O)c1nc[nH]c1C(=O)Nc1ccccc1OCC
  12	6%	12%	7	-0.7	2.0%	-7%
- CCOC(=O)c1c[nH]c2c(C)ccc(Cl)c2c1=O
  -9	.	-2%[15.4 µM]	-5	-1.0	.	9%
- COc1ccccc1S(=O)(=O)CC(O)COc1ccc(F)cc1Cl (stereo not given)
  -8	1%	-7%[15.4 µM]	1	3.9	-1.8%	0%
- CCCC(=O)Nc1nc(-c2ccc(Cl)s2)cs1
  39	0%	-4%	-19	3.0	2.4%	11%
- Nc1ccc2c(c1)Cc1cc(N)c(Cl)cc1-2
  -4	-4%	-10%	.	.	-4.6%	.
- O=C(Cc1ccccc1Cl)NCc1cccnc1
  -6	3%	9%	-5	0.2	-0.6%	1%
- Cc1ccc(CNC(=O)C2CCCN(S(=O)(=O)c3ccc(F)cc3)C2)cc1 (stereo not given)
  5	-1%	12%[15.4 µM]	-7	.	-2.9%	-1%
- CCCOc1ccccc1OCC(=O)Nc1ccc(S(=O)(=O)N2CCCC2)cc1
  -10	-7%	5%	4	.	-7.2%	.
- COc1ccc(-c2csc(NC(=O)CN3C(=O)NC4(CCCC4)C3=O)n2)cc1
  0	-4%	-15%	15	.	-3.6%	.
- O=C1/C(=C\c2ccc(-c3ccccc3[N+](=O)[O-])o2)C(c2ccccc2)=NN1c1ccccc1
  -6	-24%	6%	-1	-3.6	-0.2%	-2%
- CCOC(=O)c1cc2sccc2n1Cc1ccccc1
  9	-11%	4%	1	6.0	-3.6%	4%
- CC(C)OP(=O)(CCP(=O)(OC(C)C)OC(C)C)OC(C)C
  -2	10%	5%[15.4 µM]	16	2.8	1.1%	0%
- CC(C)(/C=N/O)/[N+]([O-])=C/c1ccco1
  9	-2%[15.4 µM]	-6%	8	-0.9	-4.6%	13%
- COc1ccccc1OCC(=O)Nc1ccc(S(=O)(=O)Nc2cc(C)on2)cc1
  -27	?	18%[15.4 µM]	5	-7.6	.	-18%
- CCOc1cc(N2CCOCC2)c(OCC)cc1NC(=O)Cc1cccc(OC)c1
  7	-5%	-22%	7	0.0	-1.6%	9%
- CCCCN1C[C@H](C)[C@@H](CC(=O)NCc2ccccc2)C1=O
  -3	3%	-1%	-25	-1.6	0.1%&-3.9%	17%
- COc1ccc(C2=NN(C(=O)CN3CCCCC3)C(c3ccc(OC)cc3)C2)cc1 (stereo not given)
  16	3%	-19%	-23	15	-14%	10%
- O=C(/C=C/c1ccc(Cl)cc1)N1CCN(c2ccc([N+](=O)[O-])c(N3CCOCC3)c2)CC1
  -6	-8%	-13%	24	0.0	-5.4%	-6%
- Cc1ccc(NC(=O)CN2CCN(C(=O)c3ccco3)CC2)cc1S(=O)(=O)N(C)C
  -4	-12%	-2%	.	.	-0.7%	.
- CC(=O)N(C(C)=O)n1c(/C=C/c2cccc([N+](=O)[O-])c2)nc2ccccc2c1=O
  -10	1%	-5%[15.4 µM]	6	1.2	.	23%
- O=C(Cn1ccc(NC(=O)OCc2ccccc2)nc1=O)NCc1nc2ccccc2[nH]1
  -6	12%	.	-10	.	-1.8%	.
- COc1ccc(-c2cc(C(=O)N3CCCC3)no2)cc1OC
  -2	-16%	?	-8	-0.5	.	9%
- O=C(COC(=O)c1cc(NS(=O)(=O)c2cccs2)ccc1O)Nc1ccc(F)c(F)c1F
  -25	-49%	26%[15.4 µM]	8	-0.5	.	8%
- CC(C)=CC(=O)OCC(=O)Nc1cc([N+](=O)[O-])ccc1F
  9	11%	-25%	-1	-2.6	-1.2%	3%

# (further entries)
# Values in the order: TRPML1 blocker	gsp antag	gsp ag	TRPV1 potentiator	Menin MLL FP FL	ClpP mod	Sfp inh
- CCOC(=O)c1oc2ccc(S(=O)(=O)n3nc(-c4ccc(OC)cc4)cc3N)cc2c1C
  -11	-16%	-14%	10	-1.2	0.2%	?
- O=C(/C=C/Nc1ccc(OC(F)(F)F)cc1)C(F)(F)F
  10	2%[15.4 µM]	-25%	.	2.9	-2.4%	9%
- CCOc1ccc(C(C(=O)NC2CCCC2)N(C(=O)c2snc(C(N)=O)c2N)c2cccc(O)c2)cc1 (stereo not given)
  -1	-5%	9%	-6	-6.5	.	20%
- Cc1ccc(SC(C)C(=O)Nc2ccc(S(=O)(=O)N3CCOCC3)cc2)cc1 (stereo not given)
  -11	12%	-40%	-18	0.7	-2.1%	3%
- CCOC(=O)c1ccc(NC(=O)c2ccccc2)cc1
  -17	3%	-31%[inhibitor]	-15	-1.2	0.1%	0%
- O=Cc1c(-c2ccccc2)cc2oc3ccccc3cc1-2
  -15	5%	3%	-10	-2.8	-1.2%	-2%
